Compound activity: PubChem, several laboratories
Mtb bLac sens: beta-lactam sensitization of Mtb H37Rv, H37Rv. inhibition, % at 25 µM. 330,000 compounds, 0.27% hits. M. tuberculosis H37Rv growth with meropenem, percent inhibition; hits of this screen are not shown here;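 active = about 74% or more and at least 40 points above the plate without the antibiotic, then above 30% in a dose series; inconclusive = first-round hits that could not be retested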;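 note: growth measured after seven days incubation then overnight dye step; 0% = bacteria only wells and 100% = bacteria with antibiotic; twin plates without the antibiotic show which effects depend on it; some results filed as inactive read as strong as hits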
YopH inh: YopH tyrosine phosphatase inhibitors, primary screen, biochemical, fluorescence Ex485/Em525; inhibition, %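 (about 10 µM by stock and volumes)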; AID 898, 2007; YopH tyrosine phosphatase [Yersinia enterocolitica]; 140,000 compounds, 0.16% hits;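 active = inhibition of 50% or more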;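 note: controls were vehicle for no effect and minimum signal wells for full effect; inactives centre near -20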
Mtb growth: M. tuberculosis H37Rv growth inhibitors, H37Rv strain (AID 1626) | M. tuberculosis H37Rv growth inhibition; higher % means a stronger effect | one-dose inhibition, % at 10 µM; IC50 in µM for titrated hits | 220,000 compounds, 0.95% hits;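 active = confirmed in a dose series; inconclusive = inhibition above 80% but not taken into the dose series; inactive = below 80% or under 30% at every dose of the series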;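 note: bacteria incubated seven days before Alamar blue readout; 0% = bacteria only wells and 100% = bacteria with antibiotic wells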
Arbovirus inh: antivirals against arbovirus infection, primary screen, cell-based, full library, 10K replicate subset; 200,000 compounds, 0.37% hits; inhibition, % at 10 µM; AID 1251, 2008; arbovirus infection cell-based antiviral screen;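 active = inhibition from about 30%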;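 note: bluetongue infection of BSR cells; cell survival read as ATP light after 72 h; 0% = infected wells without compound and 100% = uninfected wells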
RecA splice inh: Mtb RecA intein splicing inhibitors, primary screen, biochemical, fluorescence, HTS. 290,000 compounds, 0.75% hits. inhibition, %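 (about 9 µM by stock and volumes)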. Protein RecA (Mycobacterium tuberculosis (strain ATCC 25618 / H37Rv)), P9WHJ3. cell-free RecA intein splicing; in the data active = inhibition above about 30%; inconclusive = no clear call, values can overlap the other calls;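 note: 0% = vehicle wells and 100% = reference inhibitor control wells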
Target sequence (P9WHJ3 whole entry, looked up, canonical isoform): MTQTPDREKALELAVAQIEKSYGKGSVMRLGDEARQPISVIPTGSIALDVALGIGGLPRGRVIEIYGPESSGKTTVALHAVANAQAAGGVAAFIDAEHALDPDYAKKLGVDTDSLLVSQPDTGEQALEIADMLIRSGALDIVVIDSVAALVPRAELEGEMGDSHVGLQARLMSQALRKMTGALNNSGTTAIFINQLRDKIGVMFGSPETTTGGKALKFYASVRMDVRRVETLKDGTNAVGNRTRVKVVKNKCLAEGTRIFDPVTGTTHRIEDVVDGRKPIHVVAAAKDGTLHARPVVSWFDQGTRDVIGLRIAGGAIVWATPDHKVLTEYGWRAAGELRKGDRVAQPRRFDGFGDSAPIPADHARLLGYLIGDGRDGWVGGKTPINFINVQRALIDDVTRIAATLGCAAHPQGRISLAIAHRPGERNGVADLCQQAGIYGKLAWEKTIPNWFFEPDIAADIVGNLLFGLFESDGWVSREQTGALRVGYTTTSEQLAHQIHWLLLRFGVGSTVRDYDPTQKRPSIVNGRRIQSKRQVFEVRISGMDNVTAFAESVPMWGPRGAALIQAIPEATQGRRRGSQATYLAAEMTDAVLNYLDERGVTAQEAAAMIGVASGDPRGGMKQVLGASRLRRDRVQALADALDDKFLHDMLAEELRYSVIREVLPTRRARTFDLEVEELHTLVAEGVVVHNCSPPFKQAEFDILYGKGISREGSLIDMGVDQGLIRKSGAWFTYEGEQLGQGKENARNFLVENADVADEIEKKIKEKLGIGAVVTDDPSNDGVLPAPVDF
Arbovirus inh repeat: second read-out of Arbovirus inh, no call of its own (marks repeat the call); inhibition, %; measured here: 10K subset replicate screen; many hits read low in the repeat;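 first of two repeat runs on a subset; 0% = infected and 100% = uninfected wells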
* hit, by the source's call; u = inconclusive; x = no result given.

SMILES | Mtb bLac sens | YopH inh | Mtb growth | Arbovirus inh | RecA splice inh | others
CCOc1cc(/C=N/O)ccc1OS(=O)(=O)c1ccc(C)cc1 | -3 | -35 | 6% | -11 | 1.7
O=C(Nc1nnc(-c2ccccc2Cl)o1)c1ccco1 | 94 | -35 | u | -6 | 3.5
COc1ccc(C(=O)C2CCCN(Cc3c(C)[nH]c4ccccc34)C2)c(OC)c1 (stereo not given) | -3 | x | 4% | 2 | -9.2
COc1ccc(/C=C2/C(=O)N(c3ccccc3)N=C2C)cc1OC | 6 | x | x | x | 43*
CN(c1ccccc1)c1nc(N)c([N+](=O)[O-])c(N2CCOCC2)n1 | -19 | x | -8% | x | 2.3
O=C1CSC(c2ccc([N+](=O)[O-])cc2)N1c1ccc(O)cc1 (stereo not given) | 5 | x | x | x | 3.5
Cc1cc(Br)c(S(=O)(=O)NCc2cccnc2)cc1C | -4 | x | x | x | 7.7
CCC(C)(C)NC(=O)C(c1ccncc1)N(C(=O)Cn1nnc2ccccc21)c1cc2c(cc1C(C)=O)OCO2 (stereo not given) | -1 | x | 1% | -2 | -1.4
COCCCNC(=O)NC(=O)c1ccccc1 | 2 | -48 | -2% | 1 | 0.2
Cc1ccc(C(=O)N2CCN(S(=O)(=O)c3ccc(C)cc3)CC2)cc1 | -2 | x | 3% | 0 | -0.1
O=C(NCc1cccs1)c1cc(-c2cccc(Cl)c2)on1 | 11 | -51 | -12% | 8 | -3.7
CCCCCCOc1ccc(OC(=O)c2ccncc2)cc1 | 97 | 3 | u | -29 | 13
O=C(COC(=O)c1ccc(S(=O)(=O)C(F)F)cc1)NC(=O)NC1CCCCC1 | -5 | x | x | x | 0.4
C=CCN1C(=O)c2ccc(C(=O)N3CCN(S(=O)(=O)c4cccc(Cl)c4)CC3)cc2C1=O | -9 | x | x | x | 3.4
O=C(O)CCCC(=O)N1N=C(c2ccccc2)CC1c1ccc2nccnc2c1 (stereo not given) | 2 | -6 | 6% | -4 | -0.9

Reprinted from the part before: 5 compounds, followed by the next part.
SMILES | Mtb bLac sens | YopH inh | Mtb growth | Arbovirus inh | RecA splice inh | others
O=C(NCc1cccs1)c1cc(-c2cccc(Cl)c2)on1 | 11 | -51 | -12% | 8 | -3.7
CCCCCCOc1ccc(OC(=O)c2ccncc2)cc1 | 97 | 3 | u | -29 | 13
O=C(COC(=O)c1ccc(S(=O)(=O)C(F)F)cc1)NC(=O)NC1CCCCC1 | -5 | x | x | x | 0.4
C=CCN1C(=O)c2ccc(C(=O)N3CCN(S(=O)(=O)c4cccc(Cl)c4)CC3)cc2C1=O | -9 | x | x | x | 3.4
O=C(O)CCCC(=O)N1N=C(c2ccccc2)CC1c1ccc2nccnc2c1 (stereo not given) | 2 | -6 | 6% | -4 | -0.9
CCOC(=O)C1=C(C)Nc2ncnn2C1c1cc(OC)ccc1OC (stereo not given) | 3 | 23 | 5% | -1 | -0.9
CC1=NN(C(N)=S)C(C)(C)C1 | -6 | x | -9% | x | -0.5
O=C(CSc1cn[nH]n1)Nc1nc2ccccc2s1 | 1 | x | x | x | -0.2
CCCCc1ccc(NC(=S)NCCCN2CCOCC2)cc1 | -6 | x | 0% | -3 | -1.5
CN1CCSc2ccc(C(=O)Nc3cccc(F)c3)cc21 | 29 | x | 3% | x | -2.7
CCCC(=O)Nc1ccc(N2CCN(C(=O)CCC)CC2)cc1 | -2 | -32 | -7% | 3 | -4.3
Cc1nc(N2CCN(C(=O)c3ccc(Cl)cc3)CC2)c(C#N)c2c1COC(C)(C)C2 | 10 | 32 | 19% | -7 | 2.5
O=S(=O)(c1ccccc1)c1nc(-c2ccco2)oc1N1CCOCC1 | -7 | 2 | 3% | 4 | -0.5
Cc1ccc(C(=O)c2nc3c(n2O)CCCC3)cc1 | 7 | -25 | 2% | 4 | -3.6
CC(C(=O)Nc1ccc(S(=O)(=O)Nc2ncccn2)cc1)N1C(=O)c2ccccc2S1(=O)=O (stereo not given) | 4 | x | x | x | -0.2
O=c1[nH]c(CN2CCN(c3ccccc3)CC2)nc2scc(-c3ccccc3)c12 | 2 | -38 | 15% | -11 | 4.9
COc1cc(C(=O)NC(CCSC)C(=O)OCC(=O)C(C)(C)C)cc(OC)c1OC (stereo not given) | 4 | x | -1% | -2 | -0.3
CCOC(=O)c1nc(C)c(C(C)=O)s1 | -11 | x | -9% | x | -1.3
COc1ccc(CC(=O)NC(C)(C)CC(C)=O)cc1OC | -7 | -7 | 6% | 8 | -0.4
CC(=O)O[C@H]1CC[C@@]2(C)[C@H](C1)C(=O)C[C@H]1[C@@H]3CC[C@@H]4[C@@H](CN5C[C@@H](C)CC[C@H]5[C@@]4(C)O)[C@@H]3C[C@@H]12 | 5 | x | x | x | -0.5

An excerpt from above in order of molecular weight, ascending:
SMILES | Mtb bLac sens | YopH inh | Mtb growth | Arbovirus inh | RecA splice inh | others
Cc1ccc(C(=O)c2nc3c(n2O)CCCC3)cc1 | 7 | -25 | 2% | 4 | -3.6
CCCC(=O)Nc1ccc(N2CCN(C(=O)CCC)CC2)cc1 | -2 | -32 | -7% | 3 | -4.3
CC(C(=O)Nc1ccc(S(=O)(=O)Nc2ncccn2)cc1)N1C(=O)c2ccccc2S1(=O)=O (stereo not given) | 4 | x | x | x | -0.2

Remaining list, next part
SMILES | Mtb bLac sens | YopH inh | Mtb growth | Arbovirus inh | RecA splice inh | others
O=S(=O)(c1ccc(Oc2ccc(S(=O)(=O)N(CCO)CCO)cc2)cc1)N(CCO)CCO | 8 | x | -3% | 24 | -0.7
CCN(Cc1ccncc1)C(=O)c1cc(Br)cc(Br)c1O | -8 | x | 0% | 3 | -0.4
COc1ccc(CC2(CO)CCN(Cc3cnc(-c4ccccc4C)nc3)CC2)cc1 | -5 | x | 0% | 22 | 1.5
Cc1ccc(S(=O)(=O)Cc2ccc(C(=O)NCCCN3CCN(C)CC3)o2)cc1 | -17 | 10 | -4% | 6 | 2.6
CCN(CC)S(=O)(=O)c1ccc(OC(C)C)nc1 | -8 | 13 | 6% | 7 | 1.2
CCN1CCN(C(=O)Cc2coc3cc(C)cc(C)c23)CC1 | -2 | -35 | 3% | 5 | -6.8
Cc1cccc2cc(CN(CC3CCCO3)C(c3nnnn3Cc3ccco3)C(C)C)c(=O)[nH]c12 (stereo not given) | 24 | -26 | x | -16 | 17
O=C(Nc1ccc(F)c([N+](=O)[O-])c1)c1cccs1 | 1 | x | 12% | 4 | 2.1
CSc1ccc(-c2sc(Nc3ccccc3)n[n+]2-c2ccccc2)cc1 | 91 | x | x | x | 2.1
Cc1cc(C)c(S(=O)(=O)NNC(=O)C2CCN(Cc3ccccc3)CC2)c(C)c1 | 5 | -22 | -3% | 8 | -5.5
O=C1N(C2CCCC2)C[C@@H]2C[C@@H](c3cn[nH]c3-c3ccc(Cl)cc3)N3CCC[C@@]123 | 1 | x | 4% | -15 | 2.0
COC(=O)CSc1nc(NC(C)=O)nc(C)c1Br | -7 | -1 | -9% | 5 | -0.2
C(=C\c1ccccc1)/CSc1nnc(-c2ccncc2)n1Cc1ccco1 | 2 | -6 | -4% | 2 | 5.0
CCOC(=O)C1=C(C)N(C)C(=O)NC1c1ccccc1OC (stereo not given) | -9 | -6 | 0% | 2 | 0.4 | Arbovirus inh repeat=0
Cc1cc(C2=NNC(=Nc3ccc(S(=O)(=O)N4CCOCC4)cc3)SC2)c(C)n1C | 18 | x | -5% | x | 2.0
Cc1ccc(S(=O)(=O)CC(=O)N(CCCN2CCOCC2)c2nc3c(F)cccc3s2)cc1 | 1 | x | x | x | -3.3
COc1cccc(C(=O)Nc2cc(C)nn2-c2ccccc2)c1OC | -3 | x | x | x | -2.2
Cc1noc(C)c1S(=O)(=O)N1CCN(Cc2ccc3c(c2)OCO3)CC1 | u | -27 | -6% | 1 | 0.4 | Arbovirus inh repeat=-3
COc1ccccc1N1CCN(C2CCN(S(=O)(=O)c3ccc(C)cc3)CC2)CC1 | 1 | x | 3% | x | -7.3
COC(CNc1ncnc2sc(-c3ccccc3)cc12)OC | 21 | x | x | x | -1.1
COC(=O)c1sccc1NC(=O)c1cccc(Cl)c1 | -2 | x | x | x | 3.7
Cc1ccccc1Nc1nnc(SCC(=O)Nc2ccccc2[N+](=O)[O-])s1 | 2 | -13 | 1% | 9 | 4.1
COc1ccc(CC2(CO)CCN(C(C)Cc3ccc(Cl)cc3)CC2)cc1 (stereo not given) | 4 | x | 8% | -30 | 0.5
O=C(NCC1CCCO1)c1cc(C(=O)C2CCCCC2)c[nH]1 (stereo not given) | 2 | x | 0% | -6 | 1.2
CCc1ccc(OCC(=O)Nc2ccncc2)cc1 | 61 | x | x | x | -0.7
CC1CCC(N2CCN(c3ncccn3)CC2)C1 (stereo not given) | 1 | 5 | -1% | 5 | 2.0
CCCCn1c(S(=O)(=O)O)nc2ccccc21 | 4 | -63 | -8% | -2 | 7.8
O=C(C[n+]1ccc2ccccc2c1)c1cccc2ccccc12 | -5 | x | 10% | 6 | 7.3
COc1cc(/C=C(\C#N)C(=O)Nc2ccccn2)ccc1O | 6 | x | x | x | -1.8
O=C(O)c1ccc(-c2nc(-c3ccccc3)c(-c3ccccc3)[nH]2)cc1 | 12 | -20 | 2% | -2 | 5.0
Cc1nc(N/N=C/c2ccccn2)sc1C | 94 | 10 | 9% | -32 | x
Cc1ccccc1NC(=O)C1CCCN(c2ncnc3onc(-c4ccc(F)cc4)c23)C1 (stereo not given) | 3 | x | x | x | -1.0
Cc1cccc(/C=C2\Sc3ccc(C(=O)NCC4CCCO4)cc3N(C)C2=O)c1 (stereo not given) | 97 | x | x | x | 0.4
COc1ccc(NC(=O)CSc2nnc(C3CCCCC3)n2-c2ccccc2)cc1 | -4 | 2 | -5% | 7 | x
Cc1c(C)c2c(OCC(=O)NCCCO)cc3c(c2oc1=O)CCC(C)(C)O3 | 4 | x | x | x | -1.0
C/C(=N\NC(=O)c1nnn(-c2nonc2N)c1COc1ccc(F)cc1)c1ccc(Cl)cc1 | -1 | x | x | x | -2.8
CC(=O)CC(c1ccccc1[N+](=O)[O-])c1c(O)c2ccccc2oc1=O (stereo not given) | -3 | x | -7% | x | -2.9
COC(=O)c1ccccc1NC(=S)NC(C)=O | -4 | x | -1% | 2 | -0.7
Fc1cccc(NCc2cn3ccccc3n2)c1 | 4 | 4 | 4% | -1 | -0.7
CCOC(=O)c1c(C)c(C(=O)NCc2cccnc2)c(C)n1C | -6 | -27 | -6% | 4 | -4.8
C=CCn1c(-c2ccccc2)c[nH]c1=S | -1 | -5 | -6% | 3 | 0.8
CCOC(C(=O)OCC(O)CN(CC)CC)(c1ccccc1)c1ccccc1 (stereo not given) | 1 | -14 | -5% | -13 | -2.5
Cc1sc2ncnc(SCC#N)c2c1C | 2 | -4 | 5% | -2 | 3.3
COc1ccc(CCNC(=O)C2CC2)cc1OC | -2 | -33 | -5% | 0 | -2.3
Cc1ccc(S(=O)(=O)N2CC(O)C[C@H]2C(=O)OCC(=O)Nc2ccc(N3CCCCC3)cc2)cc1C (stereo not given in full) | -13 | x | x | x | -4.0
O=C(Nc1ccc(F)cc1)N1CCC(c2nc3c(nnn3Cc3ccccc3Cl)c(=O)[nH]2)CC1 | 16 | x | 42% | -13 | -5.6
C=CCN1C(=O)c2cccc3c(N4CCCCC4)ccc(c23)C1=O | 3 | x | -3% | -4 | -45
CC(C)(CO)NC(=O)C(Cc1ccccc1)N1C(=O)c2ccccc2C1=O (stereo not given) | 3 | x | x | x | -0.8
c1ccc(N2CC[N+]3(CCCC3)CC2)nc1 | 2 | -49 | -10% | -2 | -1.0
N#Cc1cnn2ccc(-c3ccc4c(c3)CCC4)nc12 | -2 | x | 6% | -2 | -2.1
Cc1ccc(NC(=O)CCCNC(=O)c2ccc(Cl)cc2)c(Br)c1 | 7 | x | x | x | -0.6
Cc1cccc(OCC(O)CN2C(C)(C)CC(O)CC2(C)C)c1C (stereo not given) | -9 | -3 | -2% | 0 | 2.9
CCN(CC)S(=O)(=O)c1ccc(N(C)CCc2ccc(OC)c(OC)c2)nc1 | -7 | x | 0% | 5 | -1.9
COc1ccc(Cc2c3cc(OC)c(OC)cc3cc[n+]2C)cc1OC | -3 | x | -11% | x | 1.7
COc1ccc(Oc2ccc(-c3ccn[nH]3)cc2)cc1 | 0 | x | 1% | x | 2.1
CCCCn1c(N)c(N(CC(C)C)C(=O)c2ccc(Cl)c(S(=O)(=O)N3CCCC3)c2)c(=O)[nH]c1=O | -10 | x | x | x | 0.8
Cn1nnnc1SCC(=O)N1CCN(S(=O)(=O)c2ccc(Cl)cc2)CC1 | 1 | x | 3% | 7 | 1.7

Only part of the results is shown. The share of hits here may be higher or lower than overall.
